High-throughput results as filed in PubChem.
Cruzain inh Det: qHTS Assay for Promiscuous and Specific Inhibitors of Cruzain (with detergent); Cruzipain (Trypanosoma cruzi), P25779; purified cruzain, Z-FR-AMC fluorescence, 0.01% Triton; Potency, µM, inactives show max response, negative = inhibition, hits mostly inhibitors; 200,000 tested, 0.43% active; AID 1478, 2009;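 also: plate controls were neutral wells for no effect and buffer without enzyme for full effect; nearly all actives have a fitted effect of over 40% in size; top concentration of the series not given in the record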
Target sequence (P25779 123-467 limits assumed): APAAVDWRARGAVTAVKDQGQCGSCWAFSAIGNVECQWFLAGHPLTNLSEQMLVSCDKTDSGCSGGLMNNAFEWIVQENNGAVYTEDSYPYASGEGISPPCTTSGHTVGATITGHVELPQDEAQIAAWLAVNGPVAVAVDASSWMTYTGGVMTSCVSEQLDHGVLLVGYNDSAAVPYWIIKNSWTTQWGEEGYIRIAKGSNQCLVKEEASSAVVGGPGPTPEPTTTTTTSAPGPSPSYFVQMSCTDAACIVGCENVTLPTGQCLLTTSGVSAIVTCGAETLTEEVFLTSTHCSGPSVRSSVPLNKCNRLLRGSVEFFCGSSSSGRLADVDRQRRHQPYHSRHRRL
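Z-FR-AMC hydrolysis (2 uM substrate) by cruzain (1.5 nM) monitored kinetically at ex 360/em 450 nm after 15 min room-temperature compound exposure; 0.01% Triton X-100, pH 5.5, 5 mM DTT.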
NS1 function inh: qHTS Assay for Inhibitors of Influenza NS1 Protein Function | S. cerevisiae slowed by influenza A NS1, growth recovery by OD600 | Potency, µM (series often up to 46.1 µM), for inactives: at the highest dose activity, positive = more growth | 270,000 tested, 0.4% active; active means well fitted rising curve with a large enough effect; inconclusive means small, poorly fitted or top-dose-only effect; inactive means no such curve, though single readings can be large or run the other way; also: nearly all actives have a fitted effect of over 50% in size
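In this qHTS, NS1 from influenza A is expressed in budding yeast, where it slows growth. Cells are switched from glucose to 2% galactose medium (pH 6.0, -URA), treated with compound, and growth recovery is read at OD600.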
MARV entry inh: qHTS for inhibitors of binding or entry into cells for Marburg Virus. AID 540276, 2011. Potency, µM (highest dose often 37.8 µM), for the others: at the highest dose activity change, negative = inhibition, hits mostly inhibitors. Marburg virus pseudotyped entry inhibition, cell reporter; control for the full effect not named in the record; about a third of the inactives were read at about 46 µM. 300,000 tested, 1.8% active; active = well fitted inhibition curve with a large enough effect; inconclusive = small, poorly fitted or top-dose-only effect, or effect the other way; inactive = flat fitted curve, though single readings scatter; tested in HEK293 cells; about a fifth of its hits are not listed in these tables; also: % is scaled to controls: 0 for no effect and ±100 for the full control effect; luciferase read-out
RE007 growth inh: qHTS Assay for Inhibitors of the HIV-1 protein Vpr. S. pombe RE007 Vpr strain, BacTiter-Glo ATP luminescence, 24 h; control for the full effect not named in the record. Potency, µM (series often up to 92.2 µM), for inactives: top-dose activity change, negative = less growth. 360,000 tested, 0.21% active. AID 651644, 2012; active = well fitted falling curve with a large enough effect; inconclusive = small, poorly fitted or top-dose-only effect; inactive = no such curve, though single readings can be large or run the other way;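 also: % is scaled to controls: 0 for no effect and ±100 for the full control effect; nearly all actives have a fitted effect of over 50% in size; the assay follows cell death caused by Vpr and the record does not say whether a fall means rescue or toxicity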
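Fission yeast RE007 carrying one integrated HIV-1 vpr copy, seeded at OD 0.01 in PMG+AL medium with 23 nL pinned compound. Grown 24 h at 30 degrees; viability read by BacTiter-Glo luminescence after 5 min.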
2A StopGo: High Throughput Screening for Foot and Mouth Disease Virus Antivirals. 410,000 tested, 1.2% active. human cells with a luciferase reporter of 2A StopGo recoding; control for the full effect not named in the record. Potency, µM (titrated, usually from 57.9 µM), inactives show at the top dose signal change, negative = less light; active = well fitted falling curve with a large enough effect; inconclusive = small, poorly fitted or top-dose-only effect; inactive = no such curve, though single readings can be large or run the other way; tested in HEK293T cells; also: % is scaled to controls: 0 for no effect and ±100 for the full control effect; nearly all actives have a fitted effect of over 45% in size; luciferase light after 4 h
SARS PLpro yeast: qHTS of Yeast-based Assay for SARS-CoV PLP; 330,000 tested, 0.19% active; Potency, µM (top dose mostly 32.9 µM), for the others: at the highest dose activity, positive = growth rescue; S. cerevisiae expressing SARS-CoV PLpro, growth rescue; control for the full effect not named in the record; AID 485353, 2010; active means well fitted rising curve with a large enough effect; inconclusive means small, poorly fitted or top-dose-only effect; inactive means no such curve, though single readings can be large or run the other way; also: 0% is about no effect; nearly all actives have a fitted effect of over 55% in size; growth read by luminescence after 48 h
LASV entry inh: qHTS for Inhibitors of binding or entry into cells for Lassa Virus; Lassa virus pseudotype entry inhibition, cell reporter; control for the full effect not named in the record; Potency, µM (series often up to 37.9 µM), inactives show top-dose activity change, negative = inhibition, most hits filed as inhibitors; 300,000 tested, 1.2% active; active means well fitted inhibition curve with a large enough effect; inconclusive means small, poorly fitted or top-dose-only effect, or effect the other way; inactive means flat fitted curve, though single readings scatter; tested in HEK293 cells; also: % is scaled to controls: 0 for no effect and ±100 for the full control effect; nearly all actives have a fitted effect of over 50% in size; luciferase read-out
Cruzain inh noDet: qHTS Assay for Promiscuous and Specific Inhibitors of Cruzain (without detergent); 200,000 tested, 2.3% active; purified cruzain, Z-FR-AMC fluorescence, no detergent; Cruzipain (Trypanosoma cruzi), P25779; Potency, µM, without a hit: max response, negative = inhibition, actives largely listed as inhibitors;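 also: plate controls were enzyme without inhibitor for no effect and buffer without enzyme for full effect; nearly all actives have a fitted effect of over 40% in size; top concentration of the series not given in the record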
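Detergent-free condition (0.00005% Triton X-100) in acetate buffer pH 5.5 with DTT. 1.5 nM enzyme and compound were pre-mixed 15 min, then 2 uM Z-FR-AMC substrate added; reaction progress from fluorescence change between first and third reads (60 s).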
Starred values were filed as active, the others as inactive; ? = inconclusive; · = not tested or not shown; & = joins results of further samples; [ ] = another dose, or the depositor's remark. Unless noted, calls follow the shape of the dose curve; as a rule, active = well fitted curve in the direction sought with a large enough effect; inconclusive = small, poorly fitted or top-dose-only effect, or another doubt; inactive = no such curve, though single readings can be large; an effect the other way counts as inactive or inconclusive. Potency is read from the fitted curve at half-maximal effect.

No.	smiles	Cruzain inh Det	NS1 function inh	LASV entry inh	Cruzain inh noDet
1	Cc1ccc(Nc2nc(N)c([N+](=O)[O-])c(NCc3ccco3)n2)cc1	-8.1%	11%	2%	-15%
2	NCCSc1c(-c2ccc(Cl)cc2)[nH]c2ccccc12	·	3%	·	·
3	CCNc1ccc(S(=O)(=O)N(C)C)cc1[N+](=O)[O-]	·	-1%	·	·
4	CC1CC(C)CN(C(=O)CN2CCN(Cc3ccc(Cl)cc3)C2=O)C1 (stereo not drawn)	0.8%	-3%	3%	5%
5	COc1ccccc1-n1cc(C(=O)NCC(=O)N2CCN(Cc3ccccc3)CC2)c2ccccc2c1=O	·	·	-1%	·
6	O=C(CCc1nnc(CCc2ccccc2)o1)N1CCCCC1CCn1cccn1 (stereo not drawn)	·	-4%	·	·
7	O=C(Cn1nnc2ccccc21)NNC(=O)c1ccccc1	·	-1%	18%	·
8	O=C(CNS(=O)(=O)c1ccccc1)OCC(=O)c1cccc([N+](=O)[O-])c1	?	6%	-13%	?
9	CCN1CCN(CCCNC(=O)c2cnn(-c3ccc(OC)cc3)c2C2CCN(C(=O)OC(C)(C)C)CC2)CC1	-0.9%	·	?	-6%
10	CCOc1ccc(NC(=O)c2ccc(CNc3c(NC4CCCCC4)c(=O)c3=O)cc2)cc1	0.1%	5%	·	4µM*
11	CCOc1ccc(CN2CCN(C/C=C/c3ccc(OC)cc3)CC2CCO)cc1 (stereo not drawn)	·	4%	-3%	·
12	O=C(Nc1cccc2ccccc12)c1cccc(F)c1	·	-1%	-25%[46.1 µM]	·

No.	RE007 growth inh	SARS PLpro yeast	2A StopGo	MARV entry inh
1	8%	9%	-19%	?
2	-4%	3%	-22%	·
3	-7%	1%	-4%	·
4	8%	8%	-28%	0%
5	20%	0%	-2%	23%[46.1 µM]
6	-15%	1%	16%	·
7	-2%	1%	3%	6%[46.1 µM]
8	67%	1%	-4%	6%
9	·	·	0%	·
10	5%	13%	1%	-1%
11	25%	0%	-23%	-5%[46.1 µM]
12	-11%	-1%	12%	8%[46.1 µM]

Continuation:
No.	smiles	Cruzain inh Det	NS1 function inh	LASV entry inh	Cruzain inh noDet
13	CCN(CC)C(=O)NC1CCCCCCC1	·	-8%	·	·
14	Cc1cccc(C(=O)NC(=S)Nc2ccccc2C(=O)O)c1	·	1%	12%	·
15	CCN(C(=O)COc1ccc(N(C)S(=O)(=O)c2ccc(NC(C)=O)cc2)cc1)C1CCCCC1	·	·	?	·
16	CCNC(=S)NNC(=O)c1cccn(Cc2ccc(Cl)cc2Cl)c1=O	-0.9%	?	-5%	-3%
17	Cc1ccc(S(=O)(=O)NC(C)(C)CSc2nncn2C)cc1	2.1%	6%	10%	-2%
18	O=C(Cn1ccc([N+](=O)[O-])n1)NCc1nc2ccccc2[nH]1	·	·	0%	·
19	O=C(CCCSc1ccccc1)Nc1ccc(Cl)c(S(=O)(=O)N2CCOCC2)c1	·	·	?	·
20	Cc1ccc(CN2C(=O)N/C(=C\c3cccn3-c3cccc(C(=O)O)c3)C2=O)cc1	·	·	-25%	·
21	CCOC(=O)C1CCN(S(=O)(=O)c2csc(C(N)=O)c2)CC1	-0.6%	-1%	0%[46.1 µM]	4%
22	CC(C)CC(C)NNC(=O)c1cc2ccccc2[nH]1 (stereo not drawn)	-0.5%	14%	6%	?
23	O=C(NCC1CCOCC1)c1cc(COc2cccc(C(F)(F)F)c2)on1	·	-4%	·	·
24	CCn1c(COc2cccc(C)c2)nnc1SCC(=O)N1CCCC1	4.7%	7%	-1%	12%

No.	RE007 growth inh	SARS PLpro yeast	2A StopGo	MARV entry inh
13	4%	-2%	3%	·
14	-46%	0%	-9%	-1%
15	-9%	1%	-30%	-25%
16	-2%	?	?	15%
17	7%	7%[6.58 µM]	28%	21%
18	-10%	-1%	10%	1%[46.1 µM]
19	2%	-3%	25µM*	?
20	-12%	0%	-20%	-18%[46.1 µM]
21	3%	-1%	-9%&-22%	·
22	-17%	-2%	43%[activator]	?
23	-20%	-3%	-26%	·
24	-4%	-1%	-15%	18%

Continued, overlapping the part above by 4 compounds.
No.	smiles	Cruzain inh Det	NS1 function inh	LASV entry inh	Cruzain inh noDet
21	CCOC(=O)C1CCN(S(=O)(=O)c2csc(C(N)=O)c2)CC1	-0.6%	-1%	0%[46.1 µM]	4%
22	CC(C)CC(C)NNC(=O)c1cc2ccccc2[nH]1 (stereo not drawn)	-0.5%	14%	6%	?
23	O=C(NCC1CCOCC1)c1cc(COc2cccc(C(F)(F)F)c2)on1	·	-4%	·	·
24	CCn1c(COc2cccc(C)c2)nnc1SCC(=O)N1CCCC1	4.7%	7%	-1%	12%
25	C/C(CC(=O)NC12CC3CC(CC(C3)C1)C2)=N\NC(=O)c1cnccn1	·	·	·	·
26	CC1(C(=O)O)CCC(C(=O)Nc2ccc(Cl)c(Cl)c2)C1(C)C (stereo not drawn)	·	-9%	·	·
27	CC(=O)c1c(C)nc2ccc(Br)cc2c1C(=O)O	2.7%	-3%	·	-1%
28	CCOc1cc(/C=C(\C#N)C(=O)Nc2ccccc2C)ccc1OCc1cc(=O)n2nc(CC)sc2n1	2.2%	·	2%[46.1 µM]	7%
29	CCN(CC)CCn1c(=S)[nH]c2ncccc2c1=O	1.0%	4%	-12%	-6%
30	CCc1cccc(C)c1NC(=O)CC1Oc2ccc(C)cc2NC1=O (stereo not drawn)	-0.2%	-4%	-4%[46.1 µM]	10%
31	CCCN1CCN(C(=O)c2cn(CC(C)C)c(=O)c3cc(OC)c(OC)cc23)CC1	0.6%	-5%	-6%	-2%
32	BrCC1C[n+]2c(SCc3ccccc3)nc3sc4c(c3c2O1)CCCC4 (stereo not drawn)	·	-5%	-2%	·
33	COc1ccc(C)cc1-n1c(-c2ccc(Cl)cc2)cc2c1CC(C)(C)CC2=O	0.6%	·	2%[46.1 µM]	8%
34	CN(CCN1CCOCC1)Cc1nc(-c2ccc(Cl)cc2)no1	·	0%	1%	·
35	COc1ccc(/C=C/c2nc3ccccc3c(=O)n2-c2ccc(C)cc2)cc1O	-5.6%	·	-18%[46.1 µM]	10%
36	O=C(CNc1cccc(S(=O)(=O)N2CCOCC2)c1)N1CCc2ccccc21	·	-3%	·	·

No.	RE007 growth inh	SARS PLpro yeast	2A StopGo	MARV entry inh
21	3%	-1%	-9%&-22%	·
22	-17%	-2%	43%[activator]	?
23	-20%	-3%	-26%	·
24	-4%	-1%	-15%	18%
25	-13%	-6%	7%	7%[46.1 µM]
26	3%	3%	-9%	·
27	-7%	11%	-22%	·
28	·	·	-22%	4%[46.1 µM]
29	24%[3.69 µM]	-2%	11%	8%
30	-5%	0%	20%&-15%	-7%&1%[46.1 µM]
31	-17%	-1%	-25%	12%&12%
32	0%	-1%	1%	?
33	·	·	-27%	-20%[46.1 µM]
34	-15%	-1%	2%	15%
35	·	·	-20%	·
36	10%	0%	5%	·

(continued)
No.	smiles	Cruzain inh Det	NS1 function inh	LASV entry inh	Cruzain inh noDet
37	CC(=O)N1c2ccc(S(=O)(=O)N3CCCC3)cc2CC1C(=O)Nc1cc(C)cc(C)c1 (stereo not drawn)	·	6%	·	·
38	CCCCn1c(=O)c2oc3ccccc3c2n(Cc2ccc(OC)cc2)c1=O	1.2%	·	5%[46.1 µM]	-7%
39	Cc1ccc(S(=O)(=O)NN=Cc2cc(Cl)ccc2O)cc1	·	·	-14%[46.1 µM]	·
40	O=C(NCc1ccc2c(c1)OCO2)C1CC(=O)N(c2ccc(F)cc2)C1 (stereo not drawn)	0.7%	6%	15%	4%
41	CCc1ccccc1-n1c(SCC(=O)Nc2ccc(C)cc2)nc2n[nH]c(C)c2c1=N	-6.0%	·	?	12%
42	Cc1nn(C)c(C)c1S(=O)(=O)N1CCC(CO)(Cc2ccc(Cl)cc2)CC1	·	-4%	-4%	·
43	Cc1cccc(-n2c(=O)c3c(c4cc(C)ccc4n3C)n(CC(=O)Nc3ccc(C)cc3C)c2=O)c1	-1.9%	·	18%[46.1 µM]	-3%
44	COc1ccc(C/C(=N\O)c2ccc(OC)cc2)cc1	-5.2%	-102%	24%	6%
45	NC(=NCCc1c[nH]c2ccccc12)NC(=O)c1ccc(F)cc1	·	1%	16%	·
46	COC(=O)c1cc2sccc2n1Cc1ccccc1	-5.4%	·	·	-12%
47	O=C(Nc1ccc(Cl)cc1N1CCOCC1)C1CCCCC1	·	-2%	-1%[46.1 µM]	·
48	Cc1ccc(-n2c(Cc3cccs3)nnc2SCC(=O)Nc2ccc(F)c(F)c2)cc1	-4.6%	0%	-2%	9%
49	N#C/C(=C\c1ccc(-c2ccc(Cl)c(C(=O)O)c2)o1)c1nc2ccccc2[nH]1	-2.5%	·	-1%[46.1 µM]	-5%
50	O=S(=O)(NCC1CCCO1)c1ccc2c(c1)OCCO2 (stereo not drawn)	7.9%	-3%	-4%	-3%

No.	RE007 growth inh	SARS PLpro yeast	2A StopGo	MARV entry inh
37	3%	4%	-15%	·
38	·	·	-9%	·
39	2%	·	10%	-20%[46.1 µM]
40	6%	5%	-9%	-1%
41	·	·	?	·
42	4%	-1%	?	?
43	·	·	-8%	·
44	-11%	-6%	9%	-28%
45	-15%	-2%	-19%	?
46	·	·	0%	14%[46.1 µM]
47	15%	-4%	0%	5%[46.1 µM]
48	-8%	-5%	0%	-21%
49	·	6%	28%	10%[46.1 µM]
50	-6%	?	72%[activator]	-3%[46.1 µM]
